Assay outcomes: PubChem, National Center for Advancing Translational Sciences (NCATS)
Rango release inh: qHTS Assay for Inhibitors of RanGTP induced Rango (Ran-regulated importin-beta cargo) - Importin beta complex dissociation; Snurportin-1 (Homo sapiens) + GTP-binding nuclear protein Ran (Homo sapiens) + Importin …; Biochemical FRET Rango-importin beta, RanGTP-induced dissociation; Potency, µM (doses to about 46.1 µM), for inactives: at the highest dose activity change, negative = inhibition; 340,000 compounds, 0.071% hits; active means falling FRET ratio curve, often poorly fitted, with flat reads before Ran was added; inconclusive means other falling curves, or compound fluorescence or quenching; inactive means flat or rising ratio curve;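 note: potency is the fitted concentration of half-maximal effect; % of control where 0% means no effect; nearly all actives have a fitted effect of over 45% in size; -100% = wells without RanGTP and RCC1; the record marks most hits as doubtful in a second field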
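Quantitative HTS using a FRET biosensor: 0.1 uM Rango, 0.25 uM importin beta, 0.6 uM Ran, 2 mM GTP, 0.2 uM RCC1 final, PBS with DTT, Tween-20 and BSA. Post-read taken 45 min after Ran addition.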
Rango complex inh: qHTS Assay for Inhibitors of Rango (Ran-regulated importin-beta cargo) - Importin beta complex formation | Importin subunit beta-1 (Homo sapiens), Q14974 | Rango CFP/YFP FRET sensor + importin beta, 45 min | Potency, µM (top dose mostly 92.2 µM), for the others: at the top dose inhibition of complex formation | 340,000 compounds, 0.031% hits | AID 540263, 2011; active = rising FRET ratio curve, often small or poorly fitted; inconclusive = mostly compound fluorescence or quenching in the first reads; inactive = flat curves in all reads;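 note: potency is the fitted concentration of half-maximal effect; 0% = DMSO wells and 100% = buffer wells lacking importin beta; nearly all actives have a fitted effect of over 15% in size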
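FRET biosensor (snurportin 1 IBB flanked by EYFP and cerulean), 50 nM, with compound 5 min, then 0.125 microM importin beta in PBS, 1 mM DTT, 0.02% Tween-20, 0.1% BSA. CFP/YFP ratio read after 45 min at room temperature; pre-read flags interference.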
miR-21 FLuc: qHTS Assay for Modulators of miRNAs and/orActivators of miR-21. 340,000 tested, under 10 active. Potency, µM (titrated, usually from 38.3 µM), for inactives: at the highest dose reporter change, positive = more light. HeLa miR-21 FLuc reporter, luciferase, 48 h; active = well fitted rising curve with a large enough effect; inconclusive = small, poorly fitted or top-dose-only effect; inactive = no such curve, though single readings can be large or run the other way;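 note: % of control where 0% means no effect; miR-21 action dims this reporter so a rising signal means less miR-21 action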
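Luminescence from a firefly luciferase reporter carrying a miR-21 binding site downstream, stably expressed under a CMV promoter in HeLa cells that make miR-21 endogenously, reports miRNA modulation after 48 h compound exposure up to approximately 40uM final.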
GLA inh pH 4.5: qHTS Assay for Inhibitors of Human alpha-Galactosidase at pH 4.5; Alpha-galactosidase A (Homo sapiens), P06280; purified enzyme, 4-MU-alpha-Gal fluorescence, pH 4.5; activity change, negative = inhibition, % at 105 µM; 230,000 tested, under 10 active; inconclusive = small, poorly fitted or top-dose-only inhibition, or a rising curve; inactive = flat fitted curve, though single readings scatter; no compound was filed as active;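 note: 0% = full activity with enzyme and -100% = basal without enzyme; dose as in the result columns while the protocol names 77 µM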
Target sequence (P06280 whole entry, looked up): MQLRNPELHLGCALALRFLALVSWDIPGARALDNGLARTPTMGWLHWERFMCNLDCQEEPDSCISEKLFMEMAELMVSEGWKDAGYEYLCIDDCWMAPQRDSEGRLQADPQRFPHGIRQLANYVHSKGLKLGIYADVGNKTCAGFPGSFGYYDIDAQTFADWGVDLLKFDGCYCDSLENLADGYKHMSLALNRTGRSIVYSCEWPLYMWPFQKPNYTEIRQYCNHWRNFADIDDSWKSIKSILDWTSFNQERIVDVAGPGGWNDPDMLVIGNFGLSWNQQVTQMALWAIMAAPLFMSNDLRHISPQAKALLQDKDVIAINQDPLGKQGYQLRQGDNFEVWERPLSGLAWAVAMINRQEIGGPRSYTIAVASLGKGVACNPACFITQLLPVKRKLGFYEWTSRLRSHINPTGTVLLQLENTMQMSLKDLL
* marks the source's active call; other numbers are inactive results; ? = inconclusive; . = not tested or not shown; & = joins results of further samples. The list is partial (hit frequency here may not be typical).

Rango release inh	Rango complex inh	miR-21 FLuc	GLA inh pH 4.5	Molecule
-3.1%	-0.7%	-10.0%	0.3	CCOC(=O)c1ccc(N=Cc2nc(-c3ccccc3)oc2OC(C)=O)cc1
39.8%	-1.1%	1.5%	13.7	CN(C)/C=N/c1nc2nccc(-c3ccccc3)n2n1
-0.1%	?	-66.5%	3.1	O=C(Nc1ccc(F)cc1)/C(Cl)=C/c1ccccc1
10.4%	-3.7%	-5.6%	.	CCN(CC)CCn1c(=S)[nH]c2cc(C(=O)NCc3ccccc3Cl)ccc2c1=O
-4.1%	0.1%	0.8%	-21.6	C[C@H](NC(=O)Cc1cccc2ccccc12)C(=O)NCc1ccccc1
-7.6%	2.0%	-12.0%	.	CCc1ccc2oc(=O)cc(CN3CCC(C)CC3)c2c1
29.7%	0.5%	-0.6%	-6.5	COC(=O)Cn1c(=NC(=O)C(C)(C)C)sc2c(C)cc(C)cc21
2.0%	2.4%	0.3%	-1.1	O=S1(=O)N=C(N2CCN(Cc3ccc4c(c3)OCO4)CC2)c2ccccc21
?	?	-5.0%	-23.5	O=c1cc(-c2ccccc2)c2cc(Cl)c(O)c(CN3CCOCC3)c2o1
15.6%	2.6%	-4.6%	-2.0	O=C(CSc1nnnn1CCCO)Nc1ccc2c(c1)OCO2
22.4%	2.4%	0.9%	.	CCN(Cc1ccccc1)C(=O)CSc1n[nH]c(N)n1
31.7%	-0.3%	-5.8%	.	CCN(CC)S(=O)(=O)c1ccc(N2CC(C(=O)NCc3cccnc3)CC2=O)cc1 (stereo unspecified)
21.2%	-2.3%	16.4%	-1.0	COc1ccccc1-c1cc2nc(C)c(CCC(=O)NCc3ccco3)c(C)n2n1
13.7%	7.3%	.	.	O=C(c1ccc(=O)[nH]n1)N1CCN(S(=O)(=O)c2ccc(C(F)(F)F)cc2)CC1
?	-0.1%	.	.	Cc1cn(CC(=O)NCC(c2ccccc2)c2ccccc2)c(=O)[nH]c1=O
-5.5%	0.8%	0.2%	5.4	Cn1c(=O)cc(OCC(=O)N2CCC(N3CCCCC3)CC2)c2ccccc21
14.6%	0.6%	-8.4%	-0.4	FC(F)(F)c1cccc(OCCOCCn2cncn2)c1
-3.3%	0.4%	-45.0%	4.6	CC(=O)c1cnc2c(-c3ccc(Cl)cc3)cnn2c1C
-13.7%	-1.8%	5.2%	-3.1	O=C(CSc1ccc(Cl)cc1Cl)N1CCC(c2nc3ccccc3s2)CC1
-1.9%	?	-2.0%	3.2	COC(=O)C1=C(C)C(c2ccc(OC)cc2)NC(=S)N1 (stereo unspecified)
14.5%	-0.9%	-8.4%	0.4	CC(C)(C)NC(=S)NC(=O)C12CCC3CC(CC(C3)C1)C2
-2.1%	-1.2%	.	.	Cc1ccc(S(=O)(=O)Nc2ccc(F)cc2)cc1C(=O)N1CCOCC1
-3.5%	0.7%	.	.	Nc1cc(S(=O)(=O)N2CCCCC2)ccc1N1CCCCC1
8.7%	3.7%	-4.7%&1.2%	.	CCOC(=O)C1CCCN(C(=O)C2CCN(S(=O)(=O)c3c(C)noc3/C=C/c3ccccc3F)CC2)C1 (stereo unspecified)
-10.0%	?	-7.3%	3.7	CCOC(=O)c1c(C)[nH]c(O)c1C=Nc1ccc(C(F)(F)F)cc1
0.4%	-0.3%	-7.2%	7.5	NC(=O)c1ccsc1NC(=O)CCS(=O)(=O)c1ccccc1
-9.1%	?	.	.	O=C(NCC(=O)N1CCN(S(=O)(=O)c2ccccc2F)CC1)c1ccc2c(c1)OCO2
-22.1%	?	-0.2%	-0.9	CCOC(=O)C1=C(C)NC(=O)NC1c1cc2c(cc1Br)OCO2 (stereo unspecified)
21.0%	5.3%	1.5%	.	CC(=O)c1ccccc1C(=O)N(C)C1CCCN(Cc2ccccc2F)C1 (stereo unspecified)
0.8%	0.8%	0.0%	.	COc1ccc(OC)c(NC(=O)NNC(=O)c2cc3occc3[nH]2)c1
4.0%	-0.2%	-9.9%	9.1	Cc1ccc(-c2nc(CN(C)C)cc(CN(C)C)c2O)cc1
-1.3%	-3.2%	.	.	Cc1ccc(N(CCC#N)C(=O)COC(=O)c2cc(C)oc2C)cc1
.	.	-1.2%	1.8	CC1CCN(S(=O)(=O)c2ccc(S(=O)(=O)N3CCN4CCCC4C3)cc2)CC1 (stereo unspecified)
-3.9%	-0.2%	0.7%	7.4	O=C1C2C(c3ccccc3)C=CC(c3ccccc3)C2C(=O)N1CCO (stereo unspecified)
2.1%	2.4%	.	.	O=C1c2cccc3cc([N+](=O)[O-])cc(c23)C(=O)N1c1nncs1
-6.4%	3.4%	-14.3%	.	Fc1ccc(NC(=S)Nc2ccccc2Cl)cc1
-0.8%	2.0%	-6.4%	.	COc1ccc(CCNS(=O)(=O)c2c(C)[nH]c(C)c2C(=O)N2CCCCC2)cc1OC
0.3%	0.2%	0.3%	7.0	O=C1OCCC1Sc1nnnn1-c1ccccc1 (stereo unspecified)
-3.3%	4.9%	.	.	Cc1ccccc1NP1(=O)OCCCN1Cc1ccccc1Cl (stereo unspecified)
0.8%	0.0%	-2.1%	-4.2	CC(=O)NC1=NN(C(C)=O)C(c2ccc(C)cc2)S1 (stereo unspecified)
1.5%	-0.7%	.	.	CN(C(=O)c1ccccc1C(=O)OCC(=O)Nc1cccc(Br)c1)c1ccccc1
0.6%	4.4%	-5.5%	2.0	COc1cccc(C2=NOC(C(=O)Nc3ccc4c(c3)OCO4)C2)c1 (stereo unspecified)
20.1%	-0.8%	2.9%	10.4	O=C(c1ccc(CS(=O)(=O)c2c(Cl)cccc2Cl)o1)N1CCCC1
-6.1%	4.2%	0.7%	.	CCc1nn(CC(=O)NCCCN2CCN(C)CC2)c(=O)c2cc3sccc3n12
-8.5%	-4.0%	.	.	Cc1ccc(C(=O)CN2C(=O)NC3(CCCCCC3)C2=O)c(C)c1
-8.7%	6.1%	-4.3%	10.2	C(=N\c1nc2ccccc2n1Cc1ccccc1)/c1cccs1
-2.8%	-2.9%	-16.3%	1.8	CN(C)S(=O)(=O)c1ccc(C(=O)OCc2ccc([N+](=O)[O-])cc2)cc1
16.9%	-0.5%	-14.8%	-7.6	Cc1ccc(C(=O)N/N=C/c2nc3ccccc3n2C)cc1
27.1%	-1.8%	-15.1%	4.8	Cc1ccc(NC(=O)c2ccc(COc3ccc4c(c3)CCC4)cc2)c(C)c1
-3.7%	0.0%	.	.	CN(CC(=O)Nc1c(Cl)cccc1Cl)C(=O)c1ccc2ccccc2n1
1.5%	1.3%	.	.	Cc1ccc(CN2C(=O)C(C)Nc3ncnc(N4CCOCC4)c32)cc1 (stereo unspecified)
-12.7%	0.2%	5.9%	4.2	Cc1cccc(C)c1NC(=O)C(=O)NCCc1c[nH]c2ccccc12
?	?	-21.5%	.	O=C(O)c1cccc(Nc2c3ccccc3nc3ccccc23)c1
1.6%	0.1%	-0.8%	-4.1	CC1CC(C)CN(S(=O)(=O)c2ccc(C(=O)OCC(=O)NCCN3C(=O)CSC3=O)cc2)C1 (stereo unspecified)
15.0%	2.0%	-7.3%	9.1	Cc1ccc2nc(SCCC(=O)O)cc(C)c2c1
5.2%	0.8%	.	.	Cc1cc(F)cc(C)c1Cn1cnc2c(cnn2C(C)(C)C)c1=O
-15.8%	-1.8%	-0.5%	4.3	Cc1ccnc(NS(=O)(=O)c2ccc(NC(=O)C3CCCCC3C(=O)O)cc2)n1 (stereo unspecified)
-13.5%	-4.6%	.	.	CSc1ccc(C2=CC(=O)C[C@H](c3ccc4c(c3)OCO4)C2)cc1
?	?	-3.1%	1.2	CCOc1ccccc1C1CC(c2ccc(Cl)cc2)Nc2nc(N)nn21 (stereo unspecified)
0.9%	1.6%	-1.0%	2.5	Cc1cc(C)cc(NC(=O)c2ccc(NC(=O)C3C4CC5OC(=O)C3C5C4)cc2)c1 (stereo unspecified)

Nothing new here: entries from further up.
Rango release inh	Rango complex inh	miR-21 FLuc	GLA inh pH 4.5	Molecule
-13.5%	-4.6%	.	.	CSc1ccc(C2=CC(=O)C[C@H](c3ccc4c(c3)OCO4)C2)cc1
?	?	-3.1%	1.2	CCOc1ccccc1C1CC(c2ccc(Cl)cc2)Nc2nc(N)nn21 (stereo unspecified)
0.9%	1.6%	-1.0%	2.5	Cc1cc(C)cc(NC(=O)c2ccc(NC(=O)C3C4CC5OC(=O)C3C5C4)cc2)c1 (stereo unspecified)

Part of the list above, limited to GLA inh pH 4.5, Rango release inh and miR-21 FLuc.
SMILES	GLA inh pH 4.5	Rango release inh	miR-21 FLuc
Cc1cc(F)cc(C)c1Cn1cnc2c(cnn2C(C)(C)C)c1=O	.	5.2%	.
Cc1ccnc(NS(=O)(=O)c2ccc(NC(=O)C3CCCCC3C(=O)O)cc2)n1 (stereo unspecified)	4.3	-15.8%	-0.5%
CSc1ccc(C2=CC(=O)C[C@H](c3ccc4c(c3)OCO4)C2)cc1	.	-13.5%	.
CCOc1ccccc1C1CC(c2ccc(Cl)cc2)Nc2nc(N)nn21 (stereo unspecified)	1.2	?	-3.1%
Cc1cc(C)cc(NC(=O)c2ccc(NC(=O)C3C4CC5OC(=O)C3C5C4)cc2)c1 (stereo unspecified)	2.5	0.9%	-1.0%

Other compounds follow.
Rango release inh	Rango complex inh	miR-21 FLuc	GLA inh pH 4.5	Molecule
?	-2.3%	0.4%	6.1	OC(c1ccccc1)C(CN1CCOCC1)c1ccccc1 (stereo unspecified)
-8.8%	-1.7%	4.9%	6.1	COc1ccc(CNN2CCCCC2C(=O)Nc2ccc(OC)c(OCC(C)C)c2)cc1OC (stereo unspecified)
3.6%	-3.4%	-0.8%	-1.3	COCCN1C(=O)C(=O)/C(=C(/O)c2ccc(S(=O)(=O)N3CCOCC3)cc2)C1c1cccc(Cl)c1 (stereo unspecified)
9.3%	-1.0%	-6.6%	.	CCN(CC(=O)Nc1cc(Cl)ccc1C)C(=O)c1ccc(=O)n(Cc2ccccc2)n1
-20.1%	-2.0%	-2.5%	-1.4	CN(C)S(=O)(=O)c1cc(NC2CC(=O)N(c3ccc(F)cc3)C2=O)ccc1Cl (stereo unspecified)
24.6%	-3.5%	.	.	COc1ccc(OC)c(S(=O)(=O)NCC(c2ccc(F)cc2)N2CCN(C)CC2)c1 (stereo unspecified)
2.2%	-0.9%	1.8%	15.3	CC1=NN(c2ccc(C)cc2)C(=O)/C1=C\C=C\c1ccccc1
2.9%	1.6%	-1.2%	.	COc1cccc(OC)c1C(=O)NC(=S)N1CCCCC1c1cccnc1 (stereo unspecified)
-0.7%	1.8%	.	.	CC(=O)c1c(C)[nH]c(C(=O)OCC(=O)N(Cc2ccccc2)C(C)(C)C)c1C
1.5%	-2.0%	-1.4%	.	COc1ccc(CNS(=O)(=O)c2c(C(=O)N3CCCCCC3)c(C)n(C)c2C)cc1
16.4%	0.6%	0.6%	.	CN(C)S(=O)(=O)n1cc(/C=C(\NC(=O)c2ccccc2)C(=O)NCCN2CCOCC2)c2ccccc21
2.0%	4.9%	.	.	Cc1ccccc1OCC(O)COc1ccccc1C
-22.1%	-1.5%	.	.	Cc1cc2c(cc1S(=O)(=O)NCc1ccccc1)NC(=O)CO2
2.1%	-0.6%	5.7%	.	COC(=O)c1cc(S(=O)(=O)Nc2ccc(C)c(F)c2)c[nH]1
10.9%	0.8%	13.8%	.	CCn1c(=S)sc2c(=O)n(CC(=O)Nc3cccc(Cl)c3)c(C)nc21
13.8%	3.4%	.	.	CSCCC(NS(=O)(=O)c1ccc(C)cc1)C(=O)Nc1ccc(C)cn1 (stereo unspecified)
11.3%	-1.2%	-7.4%	-1.6	O/N=C/c1cc(Cl)ccc1OCc1ccccc1Cl
